Source: PubChem BioAssay (several laboratories)
Mtb hypoxia inh: Mtb hypoxia fluorescent reporter inhibition; AID 1159583; fluorescence inhibition, % (concentration not given with the values); M. tuberculosis hypoxia-regulated fluorescent reporter, fluorescence; 300,000 compounds, 0.1% hits;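 active = 35 to 45% if threefold the growth effect, above 45% if 1.5-fold the growth effect; inactive = the rest, general growth blockers included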;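 note: wells of about 50 µL received 100 nL stock; 0% = vehicle wells and 100% = reference inhibitor wells; whole bacteria with a GFP reporter of the hypoxia response; strong numbers were not always called active; many hits fall short of the cut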
ugtP null kill: growth inhibition of S. aureus ugtP deletion strain. S. aureus RN4220 ugtP deletion, OD600 growth, 16 h; some inactives read as strong as hits. growth inhibition, % (no concentration beside the values). 330,000 compounds, 0.54% hits. AID 1259309;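 active = z-score under -3 and OD600 up to 0.15 on both plates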;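 note: plate controls were untreated wells for no effect and antibiotic for full effect; wells of about 80 µL received 100 nL stock; the first replicate is given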
Bead autofluor: flagged as autofluorescent in microsphere protease counterscreen. compound autofluorescence counterscreen, microsphere flow cytometry; hits give high values. fluorescence intensity (test concentration not listed). 360,000 compounds, 3.1% hits;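 active = at least 3 SD above the mean of all compounds, about 16000 in these data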;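 note: 100 nL of 1 mM stock went into each well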
PrP 5UTR inh: inhibition of PrP 5' UTR reporter expression; 340,000 compounds, 0.35% hits; AID 488862; cell-based PrP 5' UTR mRNA reporter, plate reader; inhibition, % (test concentration not listed);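 active = every replicate at 50% or more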;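 note: 0 = median of the neutral control wells; tested in H4 reporter cells; numbers are from one replicate; inactives centre near -14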
BJeLR lethal: BJeLR cell viability loss; AID 1554; inhibition, % (test concentration not listed); BJeLR (HRASV12) viability, CellTiter-Glo ATP luminescence, 48 h; reference of the scale not given here; 300,000 compounds, 0.17% hits;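 active = replicate mean above 50%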;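 note: 50 nL library stock added to about 25 µL; numbers are from one replicate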
RN4220 kill: S. aureus RN4220 growth inhibition; OD600, 16 h; inhibition, % (test concentration not listed); 330,000 compounds, 0.33% hits;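 active = z-score of -3 or lower and OD600 up to 0.18 on both plates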;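 note: plate controls were untreated cells for no effect and reference antibiotic for full effect; stock transfer was 100 nL into about 80 µL; one replicate is shown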
Mtb hypoxia inh growth: second read-out of Mtb hypoxia inh, no call of its own (marks repeat the call); growth inhibition, %; measured here: M. tuberculosis growth (absorbance);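 0% = vehicle and 100% = reference antibiotic; read after six days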
Starred values were filed as active, the others as inactive; . = no result given. An unsorted share of the library (roughly 3.9% active in at least one column).

SMILES	Mtb hypoxia inh	Mtb hypoxia inh growth	ugtP null kill	Bead autofluor	PrP 5UTR inh	BJeLR lethal	RN4220 kill
O=C1c2ccccc2C(=O)N1CC(=O)N1c2ccccc2CCc2ccccc21	.	.	17	3873	-26	6	-0.2
O=C(NCc1ccc(Cl)cc1)C(=O)NCC1OCCN1C(=O)c1cccs1 (stereo not given)	1	-6	9	2496	-12	8	1.1
COc1ccc(-c2nc3scc(-c4ccc(OC)c(OC)c4)c3c(=O)o2)cc1	11	2	2	5966	-28	-15	8.5
Cc1cc(=O)[nH]c(Nc2cccc(F)c2)n1	6	-3	-3	4441	-19	-2	-0.6
O=C1COc2ccc(S(=O)(=O)CCC(=O)N3CCN(c4ccccc4)CC3)cc2N1	-1	-1	-1	5485	8	2	3.7
CC(C)=CCN1CCN(Cc2ccc(C#CC(C)(C)O)cc2)CC1CCO (stereo not given)	-4	-16	1	2565	-21	1	-0.4
O=C(CSc1nnnn1-c1ccccc1F)NNC(=O)c1ccco1	4	9	20	3607	-5	-1	8.8
CC(C)(C)C(=O)Cn1ncc(Br)c(Br)c1=O	12	7	-3	5304	2	27	5.2
O=C(NN(Cc1ccccc1)Cc1ccccc1)c1ccccc1	11	3	-1	3831	-31	.	-2.2
Cc1cc(C)nc(SCc2ccc(C(=O)NN=Cc3ccccc3C(=O)O)cc2)n1	15	6	-3	.	.	.	16
O=C(Nc1ccc(Oc2ncnc3cc(Cl)ccc23)nc1)c1cccs1	2	-4	-1	3785	-19	2	6.1
CC(C)N1CCN(Cc2ccc3c(c2)OCCO3)CC1CCO (stereo not given)	0	6	5	4541	-13	-3	3.8
CCCNc1nc(-c2cc(C(=O)Nc3ccccc3)on2)cc(C(C)C)n1	.	.	.	3421	-24	-11	.
Cc1nc(-c2ccc(Cl)cc2)sc1C1(C)CC(c2ccc(Cl)cc2)=NO1 (stereo not given)	13	3	2	2959	-7	-5	-2.3
Cc1csc(CNC(=O)c2cc(COc3c(C)cccc3C)on2)n1	-2	5	5	5749	0	4	-2.1
COc1ccc([C@@H]2[C@@H]3C(=O)N(C(C)(C)C)C(=O)[C@@H]3[C@]3(Cc4ccc(Cl)cc4)C(=O)N(c4ccc(Br)cc4)C(=O)N23)cc1	.	.	.	4127	-6	-8	.
Nc1nnn(CC(=O)N/N=C/c2ccccc2)n1	.	.	.	4856	-3	6	.
CN(C)c1ccc(C=NOC(=O)Nc2ccccc2)cc1	8	2	-7	.	.	.	-5.7
Cc1cccc(-n2c(-c3ccco3)nc3ccccc3c2=O)n1	.	.	-6	2506	-12	20	0.2
Cc1ccc(/C=C/c2nnc(-c3ccccc3)o2)cc1	6	6	-8	6232	-73	0	13

The last 4 compounds of the part before come first, to join the parts.
SMILES	Mtb hypoxia inh	Mtb hypoxia inh growth	ugtP null kill	Bead autofluor	PrP 5UTR inh	BJeLR lethal	RN4220 kill
Nc1nnn(CC(=O)N/N=C/c2ccccc2)n1	.	.	.	4856	-3	6	.
CN(C)c1ccc(C=NOC(=O)Nc2ccccc2)cc1	8	2	-7	.	.	.	-5.7
Cc1cccc(-n2c(-c3ccco3)nc3ccccc3c2=O)n1	.	.	-6	2506	-12	20	0.2
Cc1ccc(/C=C/c2nnc(-c3ccccc3)o2)cc1	6	6	-8	6232	-73	0	13
COc1ccccc1-n1c(SCC(=O)Nc2cccc(C(=O)O)c2)nnc1-c1ccccc1C	12	12	4	4095	-16	4	0.3
Cc1ccc(C(=O)N2CCCC(C(F)(F)F)C2)cc1S(=O)(=O)N1CCCCC1 (stereo not given)	3	1	-1	5763	-23	-9	1.3
CC(=O)c1c(C)[nH]c(C(=O)Nc2ccc(F)c(F)c2F)c1C	-4	-4	9	5630	-25	-2	3.7
CCn1cc(S(=O)(=O)Nc2cc(C)ccc2F)cn1	6	9	9	5470	-19	7	4.9
COc1ccc(N(CCOc2ccccc2)S(=O)(=O)c2ccccc2)cc1	3	3	7	5308	1	.	8.3
O=C(CSc1nnc(Cc2ccccc2)n1-c1cccc(Cl)c1)NNC(=O)Cc1ccccc1	16	4	4	2477	-13	-7	3.5
CN(C)c1nnnn1-c1ccccc1Oc1ncc(C(F)(F)F)cc1Cl	8	-4	7	3070	-24	-2	4.0
CN(C(=O)c1ccccc1)c1nccnc1C#N	9	9	2	3058	-5	-6	1.1
COc1ccc(-c2csc(N3CCC(c4ccccc4)CC3)n2)cc1	14	4	17	1961	-9	0	1.4
CC1(C)Cc2c(C#N)c(N)n(-c3ccccc3)c(=O)c2CO1	.	.	6	3500	11	-2	2.5
CN(C)C=Cc1onc(-c2ccccc2Cl)c1C#N	9	9	-13	.	.	.	1.0
CCOc1cccc(C(=O)NC(=S)Nc2ccccc2)c1	5	3	-5	2202	-73	-2	4.3
CCOC(=O)Cc1c(C)c2c(C)[nH]nc2oc1=O	5	6	-5	.	-11	1	-3.0
CCOC(=O)C1C(=O)C(=O)N(C2CCCCC2)C1C(=O)OCC (stereo not given)	0	11	-4	3503	-13	.	2.1
CC(=O)c1ccc(S(=O)(=O)N2CCCC(N(C)CCc3ccccc3)C2)cc1 (stereo not given)	-5	10	2	3996	10	-4	1.0
CCC(C)(C)NC(=O)CN(C(=O)c1snc(C(N)=O)c1N)c1ccc2c(c1)OCCO2	2	3	-3	10729	-25	-9	3.6
COc1cccc(C=Nn2cnnc2)c1OCc1ccccc1	-11	-3	4	.	.	.	17
O=C(c1cc(COc2c(F)cccc2F)on1)N(Cc1ccccc1)CC1CC1	10	9	11	5535	-13	-3	2.7
CN(C(=O)c1ccc(Cl)cc1)C1=CCCCC1CCC#N (stereo not given)	.	.	5	4368	-6	7	0.3
COC(=O)Cc1c(C)c2ccc(OCC(=O)N3CCCC3)c(C)c2oc1=O	7	17	3	5890	-3	0	2.7
COc1ccc(N(CC(=O)NN=Cc2cc3ccc(OC)cc3nc2Cl)S(=O)(=O)c2ccccc2)cc1	-2	-4	4	.	.	.	9.9
COc1ccc(OC)c(NC(=S)NCCC(c2ccccc2)c2ccccc2)c1	.	.	53	4640	-10	-5	-8.7
NC(=O)C1CCN(C(=S)NCCc2ccccc2)CC1	-2	-11	2	3261	2	0	4.9
COCCCNC(=O)C1CCC(=O)N1Cc1ccccc1Cl (stereo not given)	17	12	-4	3305	-12	-2	-9.5
OC(COc1ccccc1F)CN1CCC(Cc2ccccc2)CC1 (stereo not given)	20	1	1	2941	-7	-7	1.6
O=C(CSc1nnc(NC(=O)c2ccccc2[N+](=O)[O-])s1)NCc1ccco1	3	11	5	6152	-8	-14	-4.0
CC(=O)c1ccc(NC(=O)CCCC(=O)c2ccccc2)cc1	12	3	7	3844	-12	-3	3.7
FC(F)(F)c1cccc(CNC(=S)Nc2ccccc2)c1	6	15	0	2006	-9	3	-4.0
CCCN(CCC)C(=O)CC(c1ccccc1)c1cc(Br)ccc1O (stereo not given)	2	-1	-26	22655*	-18	.	-1.5
O=C(C1CCCN(S(=O)(=O)c2ccc(Cl)cc2)C1)N(Cc1cccs1)C1CC1 (stereo not given)	.	.	3	4200	-32	4	4.0
O=C(Cn1c(=O)oc2ccccc21)N1CCOCC1	6	2	5	2106	-18	-12	3.9
Cc1ccc(NC(=O)[C@H](CC(C)C)NC(=O)[C@@H]2Cc3ccccc3CN2)cc1	10	2	5	5316	-15	8	1.8
O=C(CNC(=O)c1ccc(Cl)cc1Cl)OCCOc1ccccc1F	11	9	-1	8675	-65	.	-4.2
CC(C)(C)NC(=O)CSC(=Nc1ccccc1F)NC#N	6	2	-1	21360*	-32	5	9.9
CC(C)C(=O)Nc1nc2cc3c(cc2s1)OCO3	3	1	-12	5281	-48	1	-10
CC1CCCN(CC(O)COCc2ccccc2)C1 (stereo not given)	-14	-10	4	2786	-34	3	3.8
CC(C)CC(NC(=O)c1nc[nH]c1C(=O)NCCNC(=O)OC(C)(C)C)C(=O)CNCCNC(=O)c1[nH]cnc1C(=O)NC(C)C(=O)OC(C)(C)C (stereo not given)	12	2	2	.	.	.	7.6
O=C(NCC(=O)N1CCN(c2ccccc2F)CC1)c1ccco1	-1	-3	7	5347	-21	-14	5.5
CCOC(=O)C1(CCCc2ccccc2)CCN(C(=O)c2cnn(CC)c2)CC1	15	-1	2	3201	6	.	8.3
N#CCSc1nnc(COc2cccc3ccccc23)n1-c1ccccc1	3	6	-13	9412	-14	.	12
CC(C)NC(=O)c1ccc(S(=O)(=O)N(C)C)cc1	19	14	8	4257	-27	0	5.4
Cn1c(-c2ccc(N)cc2)nc2ccccc21	8	12	-3	3290	-54	.	-6.3
CC(C)NC(=O)NC(=O)CSc1nnc(COc2ccccc2Cl)o1	.	.	-1	2383	-5	0	2.4
CCc1cccc(C)c1NC(=O)c1ccc(CN2CCc3ccccc3C2)cc1	-1	-4	9	2697	-3	9	6.4
CN(C(=O)CO/N=C/c1ccc(Cl)cc1)c1ccccc1	.	.	.	4468	-25	6	.
O=C(NCc1cccnc1)c1ccccn1	0	9	7	22039*	-4	-10	5.5
Cc1oc2cc3oc(=O)c(CCC(=O)NCCCC(=O)O)c(C)c3cc2c1C	2	4	-3	3469	-28	1	5.5
CN1CCN(NC(=O)CN(C)S(=O)(=O)c2cc(Cl)ccc2Cl)CC1	3	5	-4	4663	-26	-6	-0.5
Cc1ccc2nc(C3CCCN(C(=S)Nc4cccc(C)c4C)C3)[nH]c2c1 (stereo not given)	4	-1	4	7924	-19	1	2.9
Cc1ccc(NS(=O)(=O)c2cc3c4c(cccc4c2)C(=O)NC3=O)cc1C	14	3	12	6039	8	10	7.5
Cn1cc(C(=O)OCC(=O)Nc2ccccc2Cl)c2ccccc21	4	-1	1	.	-23	.	5.2
FC(F)(F)c1cc(Cl)c2nnc(-c3cccnc3)n2c1	9	3	6	4994	-13	-4	-3.1
COC(=O)c1ccccc1NC(=O)CN(CCc1ccccc1)S(C)(=O)=O	-5	-4	-1	4334	-17	-3	11
CC(=NNc1ccc(F)cc1F)c1ccccc1O	8	2	9	.	.	.	-1.9
NC(=O)Nc1ccc2c(c1)OCCO2	5	2	10	3257	-28	-1	6.1
CC(=NNc1ccc(F)cc1)c1ccc(Cl)s1	9	6	-3	.	.	.	4.4
Cc1cccc(NC(=O)c2cccc(NS(=O)(=O)c3ccc(Cl)cc3)c2)c1	.	.	-5	5300	-7	8	-20
O=C(Nc1ccccc1)OCC(CN1CCCCC1)OC(=O)Nc1ccccc1 (stereo not given)	-14	-6	-3	4168	-6	.	2.5
Cc1ccc(-n2cc(C(=O)c3ccc4ccccc4c3O)cn2)cc1	0	-7	-1	4190	-5	10	-1.3
O=C1c2ccccc2-c2c1cccc2C(=O)N1CCOCC1	6	-4	3	2391	5	11	6.1

Going on with the list.
SMILES	Mtb hypoxia inh	Mtb hypoxia inh growth	ugtP null kill	Bead autofluor	PrP 5UTR inh	BJeLR lethal	RN4220 kill
COc1ccccc1N1CCN(C(=O)Nc2cccc(Cl)c2)CC1	12	-4	-1	17904*	-10	6	5.0
CCc1ccc(/C=C2/SC(N3CCOCC3)=NC2=O)cc1	8	2	-5	5431	-12	-1	8.0
CCCNc1nc2c(c(=O)[nH]c(=O)n2C)n1Cc1cccc(Br)c1	.	.	-2	3769	-19	3	-2.7
CC(Oc1cccc(Cl)c1)C(=O)NNC(=O)c1cccnc1 (stereo not given)	8	13	-1	3452	-11	.	-0.1
CCn1c(CSc2nnc(-c3ccc4c(c3)OCO4)o2)nc2cc(S(=O)(=O)N(C)C)ccc21	-6	8	-16	9203	-16	.	9.2
O=C(NNC(=S)NC1CC2C=CC1C2)c1cccnc1 (stereo not given)	3	2	1	4279	-12	-12	-0.5
CCCS(=O)(=O)N1CCCC(C(=O)Nc2ccc3c(c2)CCC3)C1 (stereo not given)	-1	5	3	5812	-23	3	2.1
O=C(OCc1ccc(F)cc1)c1cc(=O)c2ccccc2o1	1	7	4	3495	-11	-22	1.7
O=C(Nc1cc(Sc2ccccn2)cc([N+](=O)[O-])c1)c1cccc(Cl)c1	-8	0	-33	1956	-24	-4	-4.3

Another view of two compounds above:
CN1CCN(NC(=O)CN(C)S(=O)(=O)c2cc(Cl)ccc2Cl)CC1
- Mtb hypoxia inh: 3
- Mtb hypoxia inh growth: 5
- ugtP null kill: -4
- Bead autofluor: 4663
- PrP 5UTR inh: -26
- BJeLR lethal: -6
- RN4220 kill: -0.5

Cc1ccc2nc(C3CCCN(C(=S)Nc4cccc(C)c4C)C3)[nH]c2c1 (stereo not given)
- Mtb hypoxia inh: 4
- Mtb hypoxia inh growth: -1
- ugtP null kill: 4
- Bead autofluor: 7924
- PrP 5UTR inh: -19
- BJeLR lethal: 1
- RN4220 kill: 2.9
